WNV protease inh – WNV NS2B-NS3 proteinase inhibition; z-score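 (tested at a level between 10 and 100 µM)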; AID 577; 65,000 tested, 0.18% active; WNV NS2B-NS3 protease, fluorogenic substrate Ex360/Em465; stronger effect = lower value;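 active = z-score at -3 or under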;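 also: score is relative to mean and spread of the compound wells of a plate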
Target sequence (P06935 1371-1501 limits assumed): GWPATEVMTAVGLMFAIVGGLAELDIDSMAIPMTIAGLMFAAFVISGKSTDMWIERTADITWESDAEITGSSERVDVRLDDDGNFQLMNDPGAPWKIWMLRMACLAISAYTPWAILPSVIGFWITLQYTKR
Target sequence (P06935 1502-1679 limits assumed): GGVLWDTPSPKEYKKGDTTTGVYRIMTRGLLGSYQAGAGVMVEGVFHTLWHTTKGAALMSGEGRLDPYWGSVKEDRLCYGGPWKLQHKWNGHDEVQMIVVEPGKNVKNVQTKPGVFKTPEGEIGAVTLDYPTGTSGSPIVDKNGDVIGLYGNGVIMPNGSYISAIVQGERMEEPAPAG
MT1-MMP promoter – MT1-MMP gene expression reporter suppression – cell-based, luciferase reporter, luminescence (AID 618). MT1-MMP promoter luciferase reporter cells, luminescence. calls from a first round at 10 µM; hits with a dose series show EC50 in µM. 87,000 tested, 0.62% active;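 active = over half of the reporter light lost at 10 µM or EC50 under 50 µM; inactive = the rest and hits that failed the dose series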;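 also: actives suppress MT1-MMP promoter-driven transcription so potencies describe inhibitors; HT1080 fibrosarcoma cells; overnight exposure; toxic or luciferase-blocking compounds were not removed from the actives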
Hsc70 ATP site – Hsc70 inhibitors, probe displacement, primary screen, biochemical, fluorescence polarization (AID 568) | displacement, % at 20 µM, or IC50 in µM where a hit was titrated | Hsc70 fluorescence polarization, probe displacement; higher % means a stronger effect; strong numbers were not always called active | 83,000 tested, under 10 active;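 active = displacement above 50% without optical interference and an IC50 on retest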;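 also: ATPase domain with a fluorescein-tagged ATP probe; 0% = vehicle and 100% = excess ADP; read after one hour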
Starred values were filed as active, the others as inactive; i = inactive; nt = no result given.

SMILES | WNV protease inh | MT1-MMP promoter | Hsc70 ATP site
Cc1oc(-c2cccs2)nc1CS(=O)CC(=O)NCCCOC(C)C (stereo unspecified) | -0.2 | i | 58%
Cc1ccc(CCN2CC(C(=O)NCc3ccco3)CC2=O)cc1 (stereo unspecified) | -0.97 | i | -0.1%
COc1ccc(-c2cc(O)cc(O)c2)cc1 | -0.45 | i | -5.3%
CC1(C)SC(=S)N(Cc2ccc3c(c2)OCO3)C1N(O)C(=O)NC1CCCCC1 (stereo unspecified) | nt | i | -0.3%
COc1ccc(OCCCn2c(=O)oc3ccccc32)cc1 | nt | i | 2.3%
CCOc1ccc(-n2nnnc2SCC(=O)c2ccccc2)cc1 | 0.88 | i | -3.1%
Cc1ccc(N=Cc2cccc(O)c2O)c(C)c1 | -0.18 | i | 0.3%
C=CCn1c(-c2ccoc2)n[nH]c1=S | 1.2 | i | -8.3%
COc1ccc(NC(=O)c2ccc3c(c2)OCO3)cc1Cl | 0.13 | i | 3.3%
CCOC(=O)c1c(C)[nH]c(N=Nc2ccc(C)cc2C)c1C | nt | i | -2.1%
CCc1ccccc1NC(=O)CCc1nc(-c2ccc(C)cc2)no1 | 0.28 | i | -0.2%
CCOc1ccc2[nH]c(=O)c(CN(CCO)C(=O)CC)cc2c1 | -0.6 | i | 3.1%
CCCCCCn1c(COc2ccccc2F)nnc1SCC(=O)N1c2ccccc2NC(=O)C1(C)C | nt | i | -4.2%
COc1ccc(NC(=S)NC(NC(=O)c2cccc(Cl)c2)C(Cl)(Cl)Cl)c([N+](=O)[O-])c1 (stereo unspecified) | nt | i | 0.4%
Cc1cc(C)n2nc(SCC(=O)N(C)C)nc2n1 | nt | i | 3.6%
CC(C)(C)C(=O)COC(=O)c1cccc(NC(=O)c2ccco2)c1 | -0.87 | i | -2.0%
Cc1ccc(C)c(N2CCN(S(=O)(=O)c3ccc4c(c3)CCC(=O)N4)CC2)c1 | -0.78 | i | -3.1%
O=C(NCc1cccc(C(F)(F)F)c1)C1CCCN(c2ncccn2)C1 (stereo unspecified) | -0.44 | i | 3.4%
CCOC(=O)c1[nH]c2ccc(OC)cc2c1NC(=O)NC(C)C | nt | i | -4.1%
COc1ccc(S(=O)(=O)N2CCC(C(=O)Nc3ccc(OC)c(OC)c3)CC2)cc1C | 0.41 | i | 4.9%
Cc1nnc(SCc2ccccc2)n1N | 0.87 | i | -11%
O=C(CN1C(=O)COc2ccccc21)Nc1ccc2c(c1)OCCO2 | -0.89 | i | -2.7%
CCCC(=O)Nc1ccc(N2CCN(C(=O)c3ccccc3C)CC2)cc1 | -0.3 | i | 5.4%
Cc1ccc(N2CC(C(=O)NCCc3ccc(S(N)(=O)=O)cc3)CC2=O)cc1 (stereo unspecified) | -0.59 | i | -5.9%
O=C1[C@@H]2C(Cc3ccc(O)cc3)NC3(C(=O)Nc4ccc(F)cc43)[C@@H]2C(=O)N1c1ccccc1 (stereo partly specified) | -0.14 | i | -1.6%
COc1ccc(CN(C(=O)c2ccco2)c2ccccc2)cc1 | nt | i | -1.4%
COc1ccc(N2C(=O)CSC23CCC(C(C)(C)C)CC3)cc1 (stereo unspecified) | nt | i | 1.6%
O=C1Nc2cc(C(=O)N3CCN(Cc4ccccc4)CC3)ccc2SC1N1CCOCC1 (stereo unspecified) | 1.2 | i | -0.2%
O=C(CSc1nn(-c2ccccc2)c(=S)s1)Nn1cnnc1 | 1.9 | i | -4.8%
NC(=O)C[C@@H]1N[C@]2(C(=O)Nc3ccccc32)[C@@H]2C(=O)N(C3CCCCC3)C(=O)[C@H]12 | 0.15 | i | -4.8%
N#CC1=C2SCC(O)(c3ccccc3)N2C(=O)CC1c1ccccc1 (stereo unspecified) | 0.08 | i | -0.6%
COCCCNC(=O)Cn1ncc2ccsc2c1=O | 0.48 | i | -0.5%
Cc1csc(NC(=O)c2cccs2)n1 | -0.29 | i | -0.9%
O=C(Nc1nc2nc(-c3ccccc3)cc(=O)n2[nH]1)c1ccccc1 | nt | i | -0.3%
Cc1ccc(C)c2c3c([nH]c12)-c1nonc1CC3 | nt | i | -5.6%
Cc1ccc2c(c1)nnn2C1CCN(S(=O)(=O)c2ccc(C(=O)NC3CCCC3)cc2)CC1 | 0.34 | i | -6.2%
COc1ccccc1CN(Cc1cc2cc3c(cc2[nH]c1=O)OCCO3)Cc1nnnn1Cc1ccco1 | nt | i | 4.1%
CCOC(=O)c1cc(=O)n2[nH]c(-c3ccc(C)cc3)cc2n1 | -0.41 | i | -0.1%
Cc1ccc(NC(=O)CCn2nc(C)cc2C)c(C)c1 | 1.1 | i | 2.7%
CSc1nc(N)nc(SCC(=O)c2ccccc2)c1C#N | -1.1 | i | 4.8%

An excerpt of these results, with values under each structure:
Every second line gives: WNV protease inh, MT1-MMP promoter, Hsc70 ATP site
Cc1csc(NC(=O)c2cccs2)n1
→ -0.29, i, -0.9%
O=C(Nc1nc2nc(-c3ccccc3)cc(=O)n2[nH]1)c1ccccc1
→ nt, i, -0.3%
Cc1ccc(C)c2c3c([nH]c12)-c1nonc1CC3
→ nt, i, -5.6%

Additional structures follow:
SMILES | WNV protease inh | MT1-MMP promoter | Hsc70 ATP site
CC(=O)Nc1ccc(C(=O)NC(CC(=O)O)c2ccc(Cl)cc2)cc1 (stereo unspecified) | nt | i | -0.4%
Cc1ccc2nc(SCC(=O)N(CC(C)C)c3c(N)n(CC(C)C)c(=O)[nH]c3=O)[nH]c2c1 | nt | i | 0.7%
COc1ccc(N(CC(=O)Nc2ccc(OC)c(Cl)c2)S(=O)(=O)c2c(C)noc2C)cc1 | -0.14 | i | -2.7%
O=C(NC1CCCCC1)C(c1ccco1)N(C(=O)C(F)(F)F)C1CC1 (stereo unspecified) | nt | i | -2.3%
Cc1ccc(CNC(=O)C(Cc2ccccc2)NS(=O)(=O)c2cccs2)cc1 (stereo unspecified) | nt | i | -11%
CCOC(=O)c1nc(-c2ccc3c(c2)OCO3)[nH]c1C | 2.1 | i | 1.9%
O=C1CCCc2nc(N3CCc4ccccc43)ncc21 | -1.2 | i | 1.5%
O=C(COC(=O)C12CC3CC(CC(O)(C3)C1)C2)Nc1ccccc1OC(F)F | 0.43 | i | -1.6%
COc1ccccc1C1/C(=C(/O)c2ccc(OC(C)C)cc2)C(=O)C(=O)N1c1cc(C)on1 (stereo unspecified) | -0.05 | i | -5.6%
C#CCOC(=O)c1csc2nnsc12 | nt | i | -5.1%
CCc1cc2c(N[C@@H](C)C(=O)O)ncnc2s1 | -1.6 | i | 2.6%
COc1cccc(-n2c(Cc3cc(=O)[nH]c(=O)[nH]3)nnc2SCC(=O)Nc2ccccc2)c1 | 0.11 | i | 2.3%
CCC(=O)c1ccc(OCC(O)CN2CCN(S(=O)(=O)N3CCCCC3)CC2)cc1 (stereo unspecified) | -0.08 | i | -0.1%
O=C(c1ccc(NC2=NC3CS(=O)(=O)CC3S2)cc1)N1CCc2ccccc2C1 (stereo unspecified) | 0.6 | i | 1.4%
CCOc1ccc(Nc2oc(-c3cccs3)nc2C#N)cc1 | -0.75 | i | 2.9%
O=C(CCNS(=O)(=O)c1ccccc1F)NCc1ccc2c(c1)OCO2 | 1.5 | i | -4.1%
O=C(NCCN1CCOCC1)c1ccc(=O)oc1 | 0.22 | i | -0.3%
CCOc1cc(S(=O)(=O)NCCc2cccc(C)c2)c(OCC)cc1-n1cnnn1 | -0.47 | i | 0.0%
C=CCc1cccc2cc(C(=O)N3CCN(C(=O)c4ccco4)CC3)c(=O)oc12 | 0.04 | i | -1.0%
Cc1ccc(C)c(NC(=O)CCN2CCOCC2)c1 | -2 | i | -1.0%
COc1ccc2cc(C(c3nnnn3CC3CCCO3)N3CCOCC3)c(=O)[nH]c2c1 (stereo unspecified) | -0.86 | i | 6.0%
CCC(Sc1nc2c(cnn2-c2ccc(Cl)cc2)c(=O)[nH]1)C(=O)OC (stereo unspecified) | 0.2 | i | -2.7%
O=C(COC(=O)c1cnccn1)c1ccc(OC(=O)c2ccccc2)cc1 | -0.78 | i | 1.4%
CCOC(=O)CN1CC23C=CC(O2)C(C(=O)NC2CCCC2)C3C1=O (stereo unspecified) | -0.47 | i | -4.8%
CCOc1cc(-c2noc(N)c2C(=O)OC)cc(OCC)c1OCC | 1.6 | i | 1.2%
CC(=O)Oc1ccc(C)cc1N1C(=O)c2ccc(C(=O)O)cc2C1=O | -1.5 | i | 9.0%
Cn1c(/N=C/c2cc(Cl)ccc2O)nc2ccccc21 | 2.4 | i | 5.0%
C=C(C)COc1ccc(-c2n[nH]c(C)c2-c2ccc(OC)cc2)c(O)c1 | nt | i | -1.6%
CCC(NC(=O)Nc1nnc(C(F)(F)F)s1)(C(F)(F)F)C(F)(F)F | -0.89 | i | -3.5%
COc1ccc(N(CCC#N)S(=O)(=O)c2ccc(Cl)cc2)cc1 | nt | i | -3.4%
COc1ccc(C2=NOC(C(=O)NC(C)C)C2)cc1 (stereo unspecified) | -0.52 | i | -5.4%
CCN(C(=O)c1cc2ccccc2oc1=O)c1cccc(C)c1 | nt | i | -2.3%
CCN(CC)S(=O)(=O)c1ccc(Cl)c(C(=O)N2CCc3ccccc32)c1 | nt | i | 3.4%
Cc1cc(C=O)c(C)n1-c1ccc(N2CCOCC2)cc1 | nt | i | -0.6%
COc1cccc(C(=O)N2CCN(C(=O)c3cccs3)CC2)c1OC | 0.57 | i | -1.3%
COc1ccccc1CNC(=O)C1CCN(Cc2nc(-c3cccc(Cl)c3)oc2C)CC1 | -0.21 | i | -1.1%
CCOC(=O)c1sc(NC(=O)c2noc3c2CCCC3)c(C(=O)OCC)c1C | -0.48 | i | -3.7%
CCC(C)[C@H](NC(=O)OC(C)(C)C)C(=O)N/N=C/c1ccc2nccnc2c1 (stereo partly specified) | nt | i | 3.1%
O=C(O)c1ccc(COCC(F)(F)F)cc1 | 0.29 | i | 1.2%
O=C(CCNC(=O)Cn1cnc2ccccc2c1=O)NCCC1=CCCCC1 | -1.3 | i | -6.0%
O=C(OCC#CCSc1nc2ccccc2o1)c1cc2ccccc2o1 | nt | i | -5.4%
O=C(COc1ccccc1)N(Cc1cc2ccccc2[nH]c1=O)CC1CCCO1 (stereo unspecified) | -1 | i | 0.1%
CC1(C)OC(=O)N(Cc2ccco2)C1(C)O (stereo unspecified) | -1.4 | i | 3.3%
CCN1CCCC1CNc1ncnc2c1[nH]c1ccc(Cl)cc12 (stereo unspecified) | -0.75 | i | 0.8%
COc1cc(C2CC(=O)C=C(O)C2)cc(OC)c1OC (stereo unspecified) | -0.73 | i | -3.8%
COCCn1nnnc1CN1CCN2CCCC2C1 (stereo unspecified) | 1.2 | i | 2.9%
Cc1ccc(S(=O)(=O)C/N=C(/NC(=S)N(c2ccccc2)c2ccccc2)c2ccccc2)cc1 | nt | i | -0.4%
O=C(Nc1ccc(Cl)cc1)N1CCC(c2nc(-c3ccccc3Cl)no2)CC1 | nt | i | 0.7%
Cc1ccc2nc(C)cc(NCCO)c2c1 | 1.3 | i | -3.6%
Cc1ccc(Cl)cc1N1CCN(C(=O)C2CCCN(S(=O)(=O)c3cnc[nH]3)C2)CC1 (stereo unspecified) | 0.62 | i | 11%
CN(CC(=O)NC1CCCCC1)S(=O)(=O)c1cccc2nsnc12 | 0.22 | i | 4.6%
C=CCNS(=O)(=O)c1sccc1/C=N/O | -0.91 | i | -1.7%
COc1ccc(OC)c(NC(=O)CN(c2ccc(C)cc2)S(=O)(=O)c2c(C)noc2C)c1 | 1.2 | i | -6.4%
CN1C(=O)c2ccc(NC(=O)C3CCCCC3)cc2C1=O | -0.4 | i | 3.9%
COc1ccc(N2CCN(C(=O)Cn3nnc(-c4ccc(OC)c(OC)c4)n3)CC2)cc1 | 0.52 | i | 5.9%
N#Cc1ccc(Nc2ccccc2)c(N)c1 | nt | i | 4.9%
COc1cc(NC(=O)CCc2ccccc2)c(C(=O)O)cc1OC | -0.13 | i | -2.3%
C/C=C/COC(=O)c1[nH]c2c(c1C)C(=O)CC(c1ccc(N(C)C)cc1)C2 (stereo unspecified) | -0.06 | i | -2.7%
c1ccc(-c2c[nH]c3[n+]2CCCCC3)cc1 | nt | i | -2.2%
CCCn1c(=O)c(C(=O)Nc2cnccn2)c(O)c2ccccc21 | 0.13 | i | 2.0%

Whole records from above. Screens in order: WNV protease inh | MT1-MMP promoter | Hsc70 ATP site
Shown for `COc1cc(C2CC(=O)C=C(O)C2)cc(OC)c1OC` (stereo unspecified) : -0.73 | i | -3.8%
Shown for `c1ccc(-c2c[nH]c3[n+]2CCCCC3)cc1` : nt | i | -2.2%
Shown for `CN1C(=O)c2ccc(NC(=O)C3CCCCC3)cc2C1=O` : -0.4 | i | 3.9%
Shown for `CCCn1c(=O)c(C(=O)Nc2cnccn2)c(O)c2ccccc21` : 0.13 | i | 2.0%
Shown for `COc1cc(NC(=O)CCc2ccccc2)c(C(=O)O)cc1OC` : -0.13 | i | -2.3%

Screens (PubChem BioAssay)
